# CBX7 AlphaScr: CBX7 inhibition, primary AlphaScreen | normalised signal (fraction of DMSO) (no concentration beside the values) | 66,000 compounds, 1.1% hits | O95931 | AlphaScreen His6-CBX7 / biotin-H3K27me3 peptide binding; hits give low values; in the data active = normalised signal below about 0.5;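 note: 100 nL library stock added to about 20 µL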
# Target sequence (O95931 whole entry, looked up): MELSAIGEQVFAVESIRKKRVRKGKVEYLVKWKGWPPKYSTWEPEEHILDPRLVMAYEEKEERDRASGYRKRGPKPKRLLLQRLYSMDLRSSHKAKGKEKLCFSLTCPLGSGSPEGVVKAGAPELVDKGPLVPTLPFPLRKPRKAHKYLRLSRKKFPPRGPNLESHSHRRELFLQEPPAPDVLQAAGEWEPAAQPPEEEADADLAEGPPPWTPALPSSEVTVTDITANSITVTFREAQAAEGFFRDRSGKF
# CBX7 AlphaScr z-score: also measured in CBX7 AlphaScr; calls as there; z-score; measured here: z-score of CBX7 signal; some inactives read as strong as hits; reference of the scale not given here;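 same signal on another scale; lower means less binding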
# * marks the source's active call; other numbers are inactive results; & = joins results of further samples. Some of the compounds tested; the hit share may differ from the screen's.
# Values run as follows: CBX7 AlphaScr | CBX7 AlphaScr z-score
Cc1ccc(C(=O)c2oc3ccccc3c2NC(=O)C(C)Oc2ccc(F)cc2)cc1 (configuration not stated)
→ 1.7 | 2.4
CCN(CC)c1nc(-c2ccccc2Cl)c2cc(Br)ccc2n1
→ 0.97 | -0.34
O=C(C1CC(c2ccc(F)cc2)=NO1)N1CCc2ccccc2C1 (configuration not stated)
→ 1 | 1.1
O=C(Cn1cnc2scc(-c3ccccc3)c2c1=O)N1CCN(c2ccc(F)cc2)CC1
→ 0.83 | -1.2
O=C(CCc1nc(-c2ccccc2F)no1)NCCCN1CCc2ccccc2C1
→ 1 | -0.061
CCOc1ccc(-c2nnc(NC(=O)C(C)(C)C)s2)cc1
→ 1.4 | 0.84
Clc1ccc(-c2cc(-c3ccc(Cl)cc3)n(-c3cccc(Cl)c3Cl)n2)cc1
→ 1.2 | 3.2
COc1cc(NC(=O)c2ccc3c(c2)C(=O)N(c2ccccc2OC)C3=O)c(C(=O)O)cc1OC
→ 1.3 | 5
COc1cccc(CNC(=O)C2CCN(c3nn4c(=O)cc(C)nc4s3)CC2)c1
→ 1.2 | 2.3
O=C1C(=O)N(CCCn2ccnc2)C(c2ccccc2)C1=C(O)c1ccccc1 (configuration not stated)
→ 1 | 1.2
Cc1ccc(OCc2nc3ccccc3n2Cc2ccc(F)cc2)cc1
→ 1 | 1.8
CC1(C)CC(=O)c2cc(OCC(=O)NC3CCCC3)ccc2O1
→ 0.9 | -0.76
Cc1ccc(Cl)cc1N1CCN(CCCNC(=O)c2csc3c2CCCCC3)CC1
→ 0.98 | -0.52
CCC(=O)N1CCc2cc(S(=O)(=O)NCCC(=O)Nc3ccc(CC)cc3)ccc21
→ 0.98 | -0.46
O=C1CN(C(=O)c2ccc(S(=O)(=O)N3CCCC3)cc2)C(c2ccc(F)cc2)c2cc(F)ccc2N1 (configuration not stated)
→ 1 | 0.033
CC1CCc2c(oc3ccc(NS(=O)(=O)c4ccc(Br)cc4)cc23)C1 (configuration not stated)
→ 1.1 | 1.3
Cc1ccc(NC(=O)CSCc2cnn(-c3ccccc3)c2-n2cccc2)c(C)c1
→ 0.98 | -0.93
COc1ccc(NC(=O)C(c2ccc(C)cc2)N2CCOCC2)cc1 (configuration not stated)
→ 1.1 | 0.42
O=C(c1csc2c1CCCC2)N1CCc2ccccc21
→ 1 | 0.1
O=C(c1ccc2c(c1)N(Cc1cccc(Cl)c1)C(=O)c1ccccc1S2=O)N1CCCCC1 (configuration not stated)
→ 0.79 | -1.3
Cn1c(C(=O)N2CCCC(C(=O)NCc3ccc(F)cc3)C2)cc2sccc21 (configuration not stated)
→ 0.89 | -3.2
O=c1c2c(nc3cc(-c4ccc(Cl)cc4)[nH]n13)CCC2
→ 0.99 | -0.21
O=C(Nc1ccc2c(c1)OCO2)c1n[nH]c(=O)c2ccccc12
→ 1 | 0.078
Cc1ccc(C2CCN(C(=O)Nc3ccccc3)C2)cc1 (configuration not stated)
→ 0.95 | -0.34
CCOc1ccc(NC(=O)c2ccc3c(c2)N(C)CCS3)cc1
→ 0.86 | -2.1
Cc1ccc(-n2nc3c(c2NC(=O)c2cccc(C(F)(F)F)c2)CSC3)cc1
→ 1.1 | 0.087
Cc1ccc(OCCSc2nc3ccccc3n2C)cc1
→ 1.2 | 5.7
CCOc1ccc(NC(=O)c2c(NCc3cccs3)sc3c2CCC(C)C3)cc1 (configuration not stated)
→ 0.55 | -6.3
Cc1ccc(-n2c(Cc3cccn3C)nnc2SCC(=O)Nc2cc(C)cc(C)c2)cc1
→ 0.91 | -2.1
Cc1ccc(C2C3=C(CCCC3=O)Nc3ccccc3N2C(=O)C(C)C)cc1 (configuration not stated)
→ 1 | 0.085
O=C(Nc1ccccc1-c1nc2ccccc2o1)c1ccc(N2C(=O)CCC2=O)cc1
→ 1.1 | 1.8
O=C(CSc1nc2ccccc2nc1Cc1ccc(F)cc1)Nc1ccccc1Cl
→ 1 | 0.74
CCOC(=O)c1cnc2ccc(OCC)cc2c1Nc1cccc(Cl)c1C
→ 0.9 | -1.2
CC(=O)N1c2ccc(S(=O)(=O)Nc3ccc(C)c(F)c3)cc2CC1C (configuration not stated)
→ 0.95 | -1.4
Cc1c(Cl)cccc1NC(=O)C1CC1(c1ccccc1)c1ccccc1 (configuration not stated)
→ 1.1 | 1.9
O=C(CN1CCN(Cc2ccc(Cl)cc2)C1=O)NCc1ccc(F)cc1
→ 0.9 | -1.6
COc1cc(S(=O)(=O)NCCc2c(C)[nH]c3ccc(F)cc23)c(C)cc1C
→ 0.91 | -1.9
O=c1[nH]c2ccc(S(=O)(=O)Nc3ccccc3F)cc2[nH]c1=O
→ 1 | 1.9
Cc1csc2nc(CSc3nc4ccccc4[nH]3)cn12
→ 1.1 | 2
Cc1ccc(NC(=O)Cn2c(-c3ccccc3Cl)nc3sc(C)c(C)c3c2=O)cc1Cl
→ 1 | 0.33
COCCN(CCOC)S(=O)(=O)c1ccc(C(=O)Nc2nc(-c3ccc(C)cc3C)cs2)cc1
→ 0.88 | -2.9
COc1ccc(CCNC(=O)Nc2ccccc2Cl)cc1OC
→ 1 | -0.068
Cc1cc(=O)n2nc(N3CCC(C(=O)NCc4ccccn4)CC3)sc2n1
→ 1 | 0.63
COc1ccc(Cl)cc1NC(=O)c1cc(-c2ccccc2OC)on1
→ 1.3 | 2.5
Cc1nc2ncnn2c(C)c1CCC(=O)NC(C)c1ccccc1 (configuration not stated)
→ 0.98 | -0.32
Cc1ccc(NC(=O)COc2ccc(-c3nn(C)c(=O)c4ccccc34)cc2)c(C)c1
→ 1 | 0.16
COC(=O)c1c(NC(=O)c2ccc(-c3ccccc3)cc2)sc(Cc2ccccc2)c1C
→ 1.5 | 0.79
COc1ccc(-c2nc(Nc3cccc(Cl)c3)c3ccccc3n2)cc1OC
→ 1.1 | 2.2
CCC(C(=O)Nc1c(-c2ccc(OC)cc2)nc2cc(C)ccn12)c1ccccc1 (configuration not stated)
→ 0.89 | -0.19
O=C(CN1C(=O)CSc2ccccc21)NCCC1=CCCCC1
→ 1.1 | 4.1
CCc1nnc(NC(=O)Cc2cccc3ccccc23)s1
→ 0.98 | -0.65
COc1ccccc1-c1cc2nc(C)c(CCC(=O)NCCN3CCCC3)c(C)n2n1
→ 1 | 0.92
COc1ccc(-c2cc(C(F)(F)F)n3nc(C(=O)Nc4ccc(F)cc4F)c(Cl)c3n2)cc1OC
→ 1 | 0.77
CCCCn1c(CNC(=O)CC)nc2ccccc21
→ 1.2 | 1.6
CCCCNC(=O)c1sc2ncn(CC(=O)N3CCC(C)CC3)c(=O)c2c1C
→ 0.98 | -0.11
Cc1c(Cl)cccc1NC(=O)C1CCN(C(=O)c2cnn(-c3ccccc3)c2-n2cccc2)CC1
→ 1.4 | 0.82
CN(C(=O)c1cc2c(s1)-c1ccccc1OC2)c1cccc(C(F)(F)F)c1
→ 1.2 | 9.5
CCCCNC(=O)c1cc(Nc2ccc(C)cc2C)nc2ccccc12
→ 1.1 | 2.6
CCC1Oc2ccccc2N(CC(=O)NCCN2CCC(Cc3ccccc3)CC2)C1=O (configuration not stated)
→ 1.1 | 1.6
CCc1ccc(C2=NN(CCC(=O)NCCc3ccc(OC)c(OC)c3)C(=O)CC2)cc1
→ 0.97 | -0.58

# Overlap with the part before: two compounds; new compounds follow.
# Values run as follows: CBX7 AlphaScr | CBX7 AlphaScr z-score
CCC1Oc2ccccc2N(CC(=O)NCCN2CCC(Cc3ccccc3)CC2)C1=O (configuration not stated)
→ 1.1 | 1.6
CCc1ccc(C2=NN(CCC(=O)NCCc3ccc(OC)c(OC)c3)C(=O)CC2)cc1
→ 0.97 | -0.58
CCCN(CCC)C(=O)c1c[nH]c2ccc(S(=O)(=O)N(C)c3ccc(C)c(C)c3)cc2c1=O
→ 1.2 | 1.6
COc1ccc(-n2nc(C(=O)Nc3nc4ccccc4s3)c3ccccc3c2=O)cc1
→ 0.96 | -1.3
CCC(=O)N1CCc2cc(S(=O)(=O)NC(CC(C)C)C(=O)NCc3ccccc3)ccc21 (configuration not stated)
→ 1 | 0.56
CCCN(CCC)CCSc1nc(O)c(C(C)C)c(=O)n1-c1ccccc1
→ 0.99 | -0.36
O=C(Nc1ccc2nc(SCC(=O)N3CCOCC3)sc2c1)c1ccccc1Br
→ 0.95 | -0.6
COc1ccc(CCn2c(=O)c3cccnc3n(CC#N)c2=O)cc1OC
→ 0.91 | -2.4
CC(C)Oc1ccc(C(CC(=O)N2CCOCC2)c2ccccc2)cc1 (configuration not stated)
→ 0.98 | -0.6
CN(C)c1ccc(NC(=O)C23CC4CC(C2)CC(n2cnc(Cl)n2)(C4)C3)cc1
→ 0.8 | -5.8
Cc1nc2cc(C(=O)N3CCOCC3)ccc2n1-c1ccc(F)cc1F
→ 1 | -0.056
COC(=O)c1c(NC(=O)c2ccc(S(=O)(=O)N3CCCCC3)cc2)sc2c1CCN(C)C2
→ 1 | 0.37
Cc1ccccc1Nc1c(-c2cccc(Cl)c2)nc2cnccn12
→ 1.2 | 2.3
O=S(=O)(Nc1nc2ccccc2nc1Nc1ccccc1Br)c1ccccc1
→ 0.83 | -4.9
Cc1ccc(NC(=O)CCc2nnc3ccc(NCc4ccccc4Cl)nn23)cc1
→ 0.92 | -2.3
CCC(C(=O)Nc1cccc(OC)c1)n1c(SCc2cccc(F)c2)nc2ccncc21 (configuration not stated)
→ 0.98 | -0.41
O=C(NCCN1CCOCC1)c1ccc2c(c1)N(Cc1ccc(F)cc1)C(=O)c1ccccc1S2=O (configuration not stated)
→ 1 | 0.71
O=C(NCCN=C1NS(=O)(=O)c2ccccc21)c1ccc(Cl)cc1
→ 0.99 | -0.29
COc1ccc(OC)c(CNC(=O)CN2C(=O)COc3ccc(C(C)(C)C)cc32)c1
→ 0.99 | -0.27
COc1cccc(-c2nc(SCC(=O)Nc3ccc(OC)c(OC)c3)c(-c3ccc(C)cc3)[nH]2)c1
→ 0.75 | -12
CC(=O)NC1(c2nnnn2-c2cccc(Cl)c2)CCCCC1
→ 1 | 0.44
CCCCc1ccc(NC(=O)CSc2nnc(CNC(=O)c3cccs3)o2)cc1
→ 1 | 0.13
FC(F)(F)c1nc(Nc2cccc(Br)c2)sc1-c1ccc(Cl)cc1
→ 1.1&1.4 | 1.1&4.3
COc1ccccc1CNC(=O)C(NS(=O)(=O)c1ccc2c(c1)CCC(=O)N2)c1ccccc1 (configuration not stated)
→ 1 | -0.034
CCN(CC)S(=O)(=O)c1ccc2c(c1)N(CC(=O)NCCCOC)C(=O)CS2
→ 0.95 | -1.8
COC(=O)c1ccc(/C=C/c2ccc3cccc(OCc4ccccc4Cl)c3n2)cc1
→ 1.2 | 2.6
Clc1ccc(-c2nc(N3CCOCC3)c3ccccc3n2)cc1
→ 1.1 | 0.27
COc1ccc(N2CCN(c3ccc4nnc(CCC(=O)Nc5ccc(C)cc5)n4n3)CC2)cc1
→ 0.74 | -5.8
CC(C)C1=CC23CCC4C(C)(C(=O)O)CCCC4(C)C2CC1C1C(=O)N(CCO)C(=O)C13 (configuration not stated)
→ 1.1 | 0.85
Cc1ccc(NC(=O)CC2Nc3ccccc3NC2=O)c(Br)c1 (configuration not stated)
→ 1 | -0.079
CC1CCN(CCCNC(=O)Cn2nc(Cc3cccnc3)c3ccccc3c2=O)CC1
→ 1.1 | 0.076
CC1CCN(S(=O)(=O)c2ccc3[nH]cc(C(=O)NC4CC4)c(=O)c3c2)CC1
→ 1 | 0.21
COc1ccc(CN2C(=O)c3cccnc3C2Nc2cc(Cl)ccc2OC)cc1 (configuration not stated)
→ 0.0053* | -13*
Cc1nc2cc(-c3cccc(F)c3)nn2c(C)c1CCC(=O)Nc1ccccc1C(N)=O
→ 1 | 0.8
Cc1nc(SCC(=O)Nc2c(Cl)cccc2Cl)c2cc(-c3ccccc3)sc2n1
→ 1 | 0.031
CCOC(=O)N1CCC(Nc2c(NC(C)CC)c(=O)c2=O)CC1 (configuration not stated)
→ 0.85 | -1.8
COc1ccc(NC(=O)c2cccc(NC3=NC4CS(=O)(=O)CC4S3)c2)cc1Cl (configuration not stated)
→ 1 | 1.1
Cc1ccc(CNC(=O)C2C3C=CC4(CN(Cc5cccs5)C(=O)C24)O3)cc1 (configuration not stated)
→ 1.2 | 2.8
O=C(c1cc2ccccn2n1)N1CCN(c2ccccc2)CC1
→ 1.1 | 1.6
Cc1ccc(N(CC(=O)NC2CCCCC2C)S(=O)(=O)c2c(C)noc2C)cc1 (configuration not stated)
→ 0.97 | -0.21
Cc1nn(Cc2ccccc2Cl)c(C)c1NC(=O)c1cc(-c2ccc(F)cc2)on1
→ 1 | 0.052
COc1ccc(CNC(=O)C(NS(=O)(=O)c2ccc3c(c2)CCN3C(C)=O)C(C)C)cc1 (configuration not stated)
→ 1.1 | 3.5
Cc1ccc(-c2noc(CSc3nc4ccccc4[nH]3)n2)cc1
→ 1.1 | 1.9
CCN1CCCC1CNC(=O)CC1Oc2ccccc2NC1=O (configuration not stated)
→ 1.3 | 1.5
CC(C)c1nnc(NC(=O)c2ccc(C(=O)c3ccccc3)cc2)s1
→ 1.1 | 1.5
Cc1onc(-c2ccccc2Cl)c1C(=O)N1CC(C)CC(C)C1 (configuration not stated)
→ 1.1 | 1.6
Cc1cc(C(=O)Nc2cccnc2Cl)n(-c2ccccc2)n1
→ 0.98 | -0.5
Cc1cc2cc(CCNC(=O)CC(C)C)c(=O)[nH]c2cc1C
→ 1.1 | 0.87
Cc1cccc(C)c1Nc1c(-c2ccc(N3CCOCC3)cc2)nc2ncccn12
→ 0.9 | -1.2
CCn1c(C(C)NC(=O)c2ccc(OC)c(OC)c2)nc2ccccc21 (configuration not stated)
→ 1 | 0.39
Cc1ccc(CCNC(=O)C2CCC(=O)N2C(C)C)cc1 (configuration not stated)
→ 1 | -0.1
O=C(NCc1ccccc1Cl)Nc1cccs1
→ 0.97 | -1.2
COc1ccccc1C(=O)Nc1nc2ccccc2n1CCOc1ccccc1
→ 0.84 | -1.8

# Some of these compounds in order of SMILES length, rising:
# Values run as follows: CBX7 AlphaScr | CBX7 AlphaScr z-score
O=C(c1cc2ccccn2n1)N1CCN(c2ccccc2)CC1
→ 1.1 | 1.6
CCOC(=O)N1CCC(Nc2c(NC(C)CC)c(=O)c2=O)CC1 (configuration not stated)
→ 0.85 | -1.8
Cc1nn(Cc2ccccc2Cl)c(C)c1NC(=O)c1cc(-c2ccc(F)cc2)on1
→ 1 | 0.052
